MITF inhib: inhibitors of MITF. TRPM1 promoter luciferase, luminescence, 24 h. inhibition, % (no concentration beside the values). actives 0.28% (n = 37,000). AID 2240;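 active means most replicates at 85% or more, or half of them and the mean; inconclusive means half reach 85% but not the mean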;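 further: human melanocyte line stably carrying TRPM1 promoter luciferase reporter; 0% = vehicle wells and 100% = a positive control; the first replicate is given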
YB-1 expression: YB-1 expression inhibition; U2OS, qRT-PCR YB-1 vs CDIP delta delta Cp, 16 h; stronger effect = higher value; zero = DMSO, each unit about twofold; actives 0.37% (n = 30,000); delta delta Cp (YB-1 minus CDIP) (concentration not given with the values); AID 434959;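 active means delta delta Cp rounded down to an integer at or above 3, about 3 SD of DMSO wells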;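 further: higher means less YB-1 transcript or more CDIP transcript relative to DMSO; stock transfer was 100 nL into about 100 µL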
Shh pathway inh: blocks Sonic Hedgehog signaling; Shh-LIGHT2 Gli-luciferase reporter, 30 h; inhibition, % (no concentration beside the values); actives 2.1% (n = 22,000);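 active means replicate mean of 65% or more; inconclusive means mean lower but half the replicates past it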;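 further: pathway switched on by Shh-conditioned medium diluted 1 in 25 in low serum; 100 nL library stock added to about 40 µL; 0% = median of neutral wells and 100% = positive control level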
PD-1 reversal: reversal of PD-1 mediated T-cell inhibition | primary human CD4 T cells, PD-L1 beads, CellTiter-Glo 96 h | activation, % (test concentration not listed) | 29,000 tested, under 10 active | AID 2316;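 active means replicate mean of 50% or more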;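 further: 0% = median vehicle wells and 100% = positive control; 100 nL library stock added to about 50 µL; numbers are from one replicate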
* hit, by the source's call; ? = inconclusive; . = no result given.

| compound | MITF inhib | YB-1 expression | Shh pathway inh | PD-1 reversal |
| --- | --- | --- | --- | --- |
| Cc1ccc(S(=O)(=O)N(C)C[C@@H]2Oc3ccc(NC(=O)Cc4ccccc4)cc3C(=O)N([C@H](C)CO)C[C@@H]2C)cc1 | -7 | -0.2 | . | -0.1 |
| O=C1NC(c2ccc(Br)cc2)Oc2ccccc21 (centres undefined) | -6 | -0.35 | . | -1.0 |
| CC(C)NC(=O)N(C)C[C@@H]1Oc2c(NC(=O)Nc3ccccc3)cccc2C(=O)N([C@@H](C)CO)C[C@H]1C | -5 | -0.12 | 20 | 0.9 |
| C[C@H]1CN([C@@H](C)CO)C(=O)Cc2cc(NC(=O)Nc3ccc(C(F)(F)F)cc3)ccc2O[C@H]1CN(C)Cc1ccc(Oc2ccccc2)cc1 | -4 | -0.43 | -24 | 1.2 |
| C[C@@H]1CCCCO[C@H](CN(C)C(=O)c2ccccc2)[C@@H](C)CN([C@H](C)CO)C(=O)c2cc(NC(=O)Nc3cccc4ccccc34)ccc2O1 | -18 | -0.062 | . | . |
| C[C@@H]1CN([C@@H](C)CO)C(=O)c2cccc(NC(=O)C3CCOCC3)c2O[C@@H]1CN(C)Cc1ccc2c(c1)OCO2 | -3 | -0.52 | 17 | 2.2 |
| COc1ccc(S(=O)(=O)N2CCC(C(=O)Nc3ccc(NC(C)=O)cc3)CC2)cc1OC | -9 | . | . | -0.5 |
| C[C@H]1CN([C@@H](C)CO)C(=O)c2cccc(NS(=O)(=O)c3ccccc3)c2O[C@H]1CN(C)S(=O)(=O)c1ccc(F)cc1 | -3 | 0.3 | -16 | 0.8 |
| COc1ccc(S(=O)(=O)Nc2ccc3c(c2)CC(=O)N([C@@H](C)CO)C[C@@H](C)[C@@H](CN(C)C(=O)Nc2ccccc2)O3)cc1 | 6 | -0.011 | -10 | 1.9 |
| C[C@@H]1CN([C@@H](C)CO)C(=O)c2cccc(NS(C)(=O)=O)c2O[C@H]1CN(C)C(=O)NC1CCCCC1 | -8 | -0.46 | -40 | 1.1 |
| Cc1ccc(S(=O)(=O)N(C)C[C@H]2Oc3ccc(NS(=O)(=O)c4cccs4)cc3C(=O)N([C@@H](C)CO)C[C@H]2C)cc1 | 11 | 0.15 | . | 0.2 |
| CCc1ccc(OCC(=O)Nc2ccc3oc(-c4ccccc4)nc3c2)cc1 | -27 | . | . | 1.5 |
| O=C(O)CCCC[C@@H]1SC[C@@H]2NC(=O)N[C@@H]21 | 5 | 0.12 | 22 | . |
| CCc1nc2oc(C(=O)c3ccccc3)c(N)c2c2c1COC(C)(C)C2 | -20 | -0.1 | 5 | -0.7 |
| CC1CS(=O)(=O)CCN1/N=C/c1ccc([N+](=O)[O-])o1 (centres undefined) | -6 | 0.23 | -41 | . |
| CC(C)NC(=O)N(C)C[C@H]1Oc2ccc(NC(=O)CCCCCC(=O)Nc3ccccc3N)cc2C(=O)N([C@H](C)CO)C[C@@H]1C | 6 | -0.1 | . | 1.1 |
| C[C@H](CO)N1C[C@H](C)[C@H](CN(C)C(=O)Nc2cccc3ccccc23)Oc2ccc(NC(=O)Nc3ccc(C(F)(F)F)cc3)cc2C1=O | 43 | -0.53 | 21 | -2.7 |
| COc1ccc(NC(=O)N(C)C[C@@H]2Oc3c(NC(=O)Nc4ccc5c(c4)OCO5)cccc3C(=O)N([C@H](C)CO)C[C@@H]2C)cc1 | -17 | -0.062 | -19 | . |
| C[C@@H]1CCCCO[C@@H](CN(C)C(=O)c2ccccc2)[C@@H](C)CN([C@H](C)CO)C(=O)c2cc(NC(=O)Nc3ccccc3)ccc2O1 | 3 | -0.43 | . | -0.8 |
| COc1ccc(NC(=O)N(C)C[C@@H]2Oc3ccc(NC(=O)C4CC4)cc3CC(=O)N([C@H](C)CO)C[C@H]2C)cc1 | -2 | -0.32 | -27 | 0.7 |

Given with each value named: four of the compounds above.
SMILES: CC(C)NC(=O)N(C)C[C@H]1Oc2ccc(NC(=O)CCCCCC(=O)Nc3ccccc3N)cc2C(=O)N([C@H](C)CO)C[C@@H]1C
  MITF inhib: 6	YB-1 expression: -0.1	Shh pathway inh: .	PD-1 reversal: 1.1

SMILES: COc1ccc(S(=O)(=O)Nc2ccc3c(c2)CC(=O)N([C@@H](C)CO)C[C@@H](C)[C@@H](CN(C)C(=O)Nc2ccccc2)O3)cc1
  MITF inhib: 6	YB-1 expression: -0.011	Shh pathway inh: -10	PD-1 reversal: 1.9

SMILES: C[C@@H]1CN([C@@H](C)CO)C(=O)c2cccc(NC(=O)C3CCOCC3)c2O[C@@H]1CN(C)Cc1ccc2c(c1)OCO2
  MITF inhib: -3	YB-1 expression: -0.52	Shh pathway inh: 17	PD-1 reversal: 2.2

SMILES: C[C@H]1CN([C@@H](C)CO)C(=O)Cc2cc(NC(=O)Nc3ccc(C(F)(F)F)cc3)ccc2O[C@H]1CN(C)Cc1ccc(Oc2ccccc2)cc1
  MITF inhib: -4	YB-1 expression: -0.43	Shh pathway inh: -24	PD-1 reversal: 1.2

(further entries)
| compound | MITF inhib | YB-1 expression | Shh pathway inh | PD-1 reversal |
| --- | --- | --- | --- | --- |
| C[C@@H]1CN([C@H](C)CO)C(=O)Cc2cc(NS(=O)(=O)c3ccc(Cl)cc3)ccc2O[C@H]1CN(C)C(=O)Nc1ccc(C(F)(F)F)cc1 | 5 | 0.17 | -7 | 0.2 |
| CC(C)NC(=O)Nc1cccc2c1O[C@H](CN(C)C)[C@H](C)CN([C@@H](C)CO)C2=O | -6 | 0.05 | -16 | 2.4 |
| C[C@@H]1CN([C@H](C)CO)C(=O)c2cc(NC(=O)CCN3CCOCC3)ccc2O[C@@H]1CN(C)C | -1 | 0.054 | . | -0.7 |
| Cc1ccccc1-c1nc(S(=O)(=O)c2ccc(Cl)cc2)c(NCc2cccnc2)o1 | 10 | . | . | -3.1 |
| COC(=O)c1c(-c2ccccc2)csc1NC(=O)CSc1ncnc2sc(C)c(C)c12 | 24 | . | . | 0.6 |
| C[C@@H]1CN([C@H](C)CO)C(=O)c2cc(NC(=O)CCC(F)(F)F)ccc2O[C@H]1CN(C)C(=O)Nc1ccc(F)cc1 | 9 | 0.48 | -30 | 1.6 |
| O=C1CCC(=O)N1CN(C(=O)C(F)(F)F)c1ccccc1 | -12 | -0.2 | . | 0.9 |
| C[C@@H]1CN([C@@H](C)CO)C(=O)c2cccc(NS(=O)(=O)c3cn(C)cn3)c2O[C@H]1CN(C)CC1CC1 | -5 | -0.13 | -10 | . |
| COC(=O)Cc1cc(=O)n(-c2ccccc2)[nH]1 | -4 | . | . | 1.0 |
| O=S(=O)(CCN(Cc1cccs1)C(=S)Nc1cccc(F)c1)c1ccc(Cl)cc1 | 35 | -0.22 | . | -1.1 |
| Cc1ccc(S(=O)(=O)N(C)C[C@@H]2Oc3c(NC(=O)Nc4ccc(C(F)(F)F)cc4)cccc3C(=O)N([C@H](C)CO)C[C@H]2C)cc1 | 3 | -0.082 | -5 | -3.6 |
| C=C1CCC2[C@](C)(CCC[C@]2(C)C(=O)O)[C@H]1CC/C(C)=C/C(=O)OC (some centres undefined) | -7 | -0.42 | -7 | -0.2 |
| N#Cc1c(NC(=O)c2cc3nc(-c4ccco4)cc(C(F)(F)F)n3n2)sc2c1CCCCC2 | -6 | . | . | -0.8 |
| COc1ccc(S(=O)(=O)N(C)C[C@@H]2Oc3ccc(NC(=O)CCCCCC(=O)Nc4ccccc4N)cc3C(=O)N([C@H](C)CO)C[C@H]2C)cc1 | -4 | 1.1 | . | 0.5 |
| O=C1NC(=S)N/C1=C\c1ccco1 | 1 | 0.04 | . | 0.7 |
| C[C@@H]1CN([C@H](C)CO)C(=O)Cc2cc(NC(=O)Nc3ccc(C(F)(F)F)cc3)ccc2O[C@H]1CN(C)S(=O)(=O)c1cn(C)cn1 | -7 | -0.16 | ? | -0.6 |
| Cc1ccc(S(=O)(=O)Nc2ccc3c(c2)CC(=O)N([C@@H](C)CO)C[C@@H](C)[C@@H](CN(C)C(=O)Nc2ccc(F)cc2)O3)cc1 | -11 | 0.41 | 5 | -0.3 |
| CC(C)NC(=O)N(C)C[C@H]1Oc2c(NC(=O)c3ccncc3)cccc2C(=O)N([C@H](C)CO)C[C@H]1C | 4 | -0.84 | -10 | 0.0 |
| C[C@@H]1CN([C@@H](C)CO)C(=O)Cc2cc(NS(=O)(=O)c3ccc(Cl)cc3)ccc2O[C@@H]1CN(C)Cc1ccc(-c2ccccc2)cc1 | 8 | 0.1 | 8 | 1.6 |
| C[C@H]1CN([C@@H](C)CO)C(=O)c2cccc(N(C)C)c2O[C@H]1CN(C)C(=O)Nc1ccc2c(c1)OCO2 | -8 | -0.4 | -6 | 3.2 |
| C[C@H]1CN([C@@H](C)CO)C(=O)c2cc(NC(=O)Nc3ccc(F)cc3)ccc2O[C@H]1CN(C)C(=O)NC1CCCCC1 | 1 | 0.065 | -5 | 0.5 |
| Cc1ccc(S(=O)(=O)Nc2cccc3c2O[C@@H](CN(C)C)[C@H](C)CN([C@H](C)CO)C3=O)cc1 | 4 | 0.19 | -17 | 1.4 |
| C[C@@H]1CN([C@@H](C)CO)C(=O)c2cccc(NC(=O)C3CCOCC3)c2O[C@H]1CN(C)C(=O)Nc1ccc(C(F)(F)F)cc1 | -2 | -0.26 | -4 | 0.4 |
| CNC[C@H]1Oc2ccc(NS(=O)(=O)c3ccc(F)cc3)cc2C(=O)N([C@H](C)CO)C[C@@H]1C | 15 | 0.26 | -4 | 1.2 |
| CC(C)NC(=O)N(C)C[C@H]1Oc2ccc(NC(=O)NC3CCCCC3)cc2C(=O)N([C@H](C)CO)C[C@H]1C | 12 | -0.27 | 9 | 0.7 |
| Cn1c(SCC(=O)Nc2ccc(Cl)cc2Cl)nnc1-c1ccc(Br)cc1 | 13 | . | . | -1.3 |
| C[C@@H]1CN([C@H](C)CO)C(=O)c2cc(NC(=O)Nc3ccc4c(c3)OCO4)ccc2O[C@H]1CN(C)Cc1ccc(C(=O)O)cc1 | 3 | 0.31 | . | -0.1 |
| Cc1ccc(S(=O)(=O)Nc2ccc3c(c2)C(=O)N([C@H](C)CO)C[C@@H](C)[C@@H](CN(C)C(=O)Nc2ccc(F)cc2)O3)cc1 | 4 | -0.65 | -23 | -1.4 |
| C[C@@H]1CN([C@H](C)CO)C(=O)Cc2cc(NC(=O)Cc3cn(C)c4ccccc34)ccc2O[C@@H]1CN(C)C(=O)Nc1ccc2c(c1)OCO2 | 2 | 0.35 | -3 | . |
| C[C@H]1CN([C@@H](C)CO)C(=O)c2cccc(NS(=O)(=O)c3ccccc3)c2O[C@H]1CN(C)Cc1ccccc1 | -4 | -0.24 | 24 | . |
| Cc1noc(C)c1NC(=O)N(C)C[C@H]1Oc2ccc(NC(=O)Nc3ccc(C(F)(F)F)cc3)cc2CC(=O)N([C@H](C)CO)C[C@H]1C | -29 | 0.23 | -6 | -2.1 |
| COc1ccc(NC(=O)N(C)C[C@H]2Oc3ccc(NC(=O)Nc4cccc5ccccc45)cc3C(=O)N([C@@H](C)CO)C[C@H]2C)cc1 | 5 | -0.14 | 17 | . |
| C[C@H](CO)N1C[C@H](C)[C@H](CN(C)S(=O)(=O)c2ccccc2)Oc2ccc(NC(=O)C3CCCCC3)cc2C1=O | 0 | 0.15 | . | -2.2 |
| Cc1noc(C)c1S(=O)(=O)Nc1ccc2c(c1)C(=O)N([C@@H](C)CO)C[C@@H](C)[C@H](CN(C)Cc1ccc3c(c1)OCO3)O2 | 12 | -0.096 | -25 | -0.8 |
| COC(=O)c1c(C)oc2ccc(NS(=O)(=O)c3cc(OC)ccc3OC)cc12 | 36 | . | . | 0.1 |
| C[C@H]1CN([C@@H](C)CO)C(=O)c2cc(NC(=O)c3ccncc3)ccc2O[C@@H]1CN(C)S(=O)(=O)c1ccc(Cl)cc1 | -8 | 0.16 | -28 | 2.4 |
| C[C@@H]1CN([C@@H](C)CO)C(=O)Cc2cc(NS(C)(=O)=O)ccc2O[C@@H]1CN(C)Cc1ccc(Oc2ccccc2)cc1 | 3 | 0.14 | -49 | . |
| COc1ccc(NC(=O)N(C)C[C@@H]2Oc3ccc(NC(=O)C4CC4)cc3C(=O)N([C@H](C)CO)C[C@H]2C)cc1 | 1 | 0.32 | . | 1.3 |
| C[C@H]1CN([C@@H](C)CO)C(=O)c2cc(NC(=O)C3CCCCC3)ccc2O[C@@H]1CN(C)S(=O)(=O)c1ccc(F)cc1 | -2 | 0.12 | 7 | -0.1 |
| CCOc1ccc(C(=O)Nc2ccc(NC(=O)c3ccccc3)c(C)c2)cc1Br | -2 | -0.28 | 96* | 0.0 |
| C[C@@H]1CN([C@@H](C)CO)C(=O)c2cccc(NS(=O)(=O)c3ccc(Cl)cc3)c2O[C@H]1CN(C)CC1CC1 | -3 | 0.056 | 0 | . |
| C[C@H](CO)N1C[C@H](C)[C@H](CN(C)Cc2ccncc2)Oc2c(NS(=O)(=O)c3ccc(F)cc3)cccc2C1=O | 0 | 0.17 | -13 | 0.8 |
| C(=C\c1nn2c(C3COc4ccccc4O3)nnc2s1)/c1ccccc1 (centres undefined) | -56 | . | . | 0.4 |
| C[C@H]1CN([C@@H](C)CO)C(=O)Cc2cc(NC(=O)CCC(F)(F)F)ccc2O[C@H]1CN(C)S(=O)(=O)c1ccc(F)cc1 | 32 | 0.1 | -6 | -0.7 |
| C[C@@H]1CN([C@H](C)CO)C(=O)Cc2cc(NC(=O)Nc3cccc4ccccc34)ccc2O[C@H]1CN(C)Cc1ccccc1 | 8 | 0.17 | 13 | . |

The list is partial, so the mix of outcomes need not match the whole.
